Bioassay records from PubChem.
VCAM-1 imaging = inhibitors of TNFa-induced VCAM-1 surface display, imaging, high-content imaging, pooled HUVEC, TNFa stimulus (AID 456); HUVEC TNFa-induced VCAM-1 surface expression, immunofluorescence imaging; numbers were filed only for top-ranked candidate wells; inhibition, % at 5 µM; hits with a dose series show IC50 in µM; actives 0.2% (n = 10,000);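 active = top tenth filtered wells with inhibition above zero that passed visual or statistical confirmation; inactive = the rest, including hits rejected on review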;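 also: 0% = stimulated vehicle wells and 100% = unstimulated cells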
VCAM-1 up imaging = enhancers of VCAM-1 display on endothelial cells, imaging, high-content imaging, pooled HUVEC, TNFa stimulus (AID 457); Pooled HUVEC, TNFa-induced VCAM-1 immunofluorescence imaging; hits of this screen are not shown here; calls only; actives 0.2% (n = 10,000);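 active = a top-ranked rise in VCAM-1 staining upheld on image or statistical review; inactive = the rest, including candidates rejected on review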;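 also: compounds tested at 5 µM in the well; cells exposed to compound for 24 hours before fixing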
FPR binder = human FPR ligands by binding competition, primary screen, cell-based, FPRL1 counter-screen, flow cytometry | FPR-expressing cells, fluorescent ligand binding | inhibition, %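 (tested at 6.7 µM)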 | actives 0.74% (n = 24,000);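 also: 0% = buffer wells and 100% = receptor blocker peptide wells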
Target sequence (P21462 whole entry, looked up): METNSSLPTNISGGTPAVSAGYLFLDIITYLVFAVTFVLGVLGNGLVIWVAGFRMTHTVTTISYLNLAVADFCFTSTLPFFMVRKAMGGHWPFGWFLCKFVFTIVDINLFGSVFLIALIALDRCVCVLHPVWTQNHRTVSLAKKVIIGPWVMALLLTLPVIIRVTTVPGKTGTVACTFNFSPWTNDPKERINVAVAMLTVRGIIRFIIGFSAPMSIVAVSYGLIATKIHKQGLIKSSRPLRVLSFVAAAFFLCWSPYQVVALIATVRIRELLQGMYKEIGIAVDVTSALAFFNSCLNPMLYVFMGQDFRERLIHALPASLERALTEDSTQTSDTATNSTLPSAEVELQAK
VCAM-1 down = inhibitors of TNFa-induced VCAM-1 surface display, cell-based, plate reader, pooled HUVEC, TNFa stimulus (AID 454) | HUVEC TNFa-induced VCAM-1 surface immunofluorescence, plate reader; numbers were filed only for top-ranked candidate wells | inhibition, % at 5 µM | actives 0.2% (n = 10,000);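 active = compound among top-ranked inhibitors of TNF-induced VCAM-1 adhesion protein staining, with the hit upheld by image or statistical review; inactive = the rest, including hits rejected on review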;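 also: 0% = TNFa with vehicle and 100% = cells without TNFa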
FPRL1 ligand = human FPRL1 ligands by binding competition, primary screen, cell-based, FPR counter-screen, flow cytometry; N-formyl peptide receptor 2 (Homo sapiens), P25090; FPRL1-expressing cells, fluorescent ligand binding inhibition; inhibition, %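 (tested at 6.7 µM)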; actives 0.3% (n = 24,000);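 also: 0% = buffer alone and 100% = receptor blocker peptide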
Target sequence (P25090 whole entry, looked up): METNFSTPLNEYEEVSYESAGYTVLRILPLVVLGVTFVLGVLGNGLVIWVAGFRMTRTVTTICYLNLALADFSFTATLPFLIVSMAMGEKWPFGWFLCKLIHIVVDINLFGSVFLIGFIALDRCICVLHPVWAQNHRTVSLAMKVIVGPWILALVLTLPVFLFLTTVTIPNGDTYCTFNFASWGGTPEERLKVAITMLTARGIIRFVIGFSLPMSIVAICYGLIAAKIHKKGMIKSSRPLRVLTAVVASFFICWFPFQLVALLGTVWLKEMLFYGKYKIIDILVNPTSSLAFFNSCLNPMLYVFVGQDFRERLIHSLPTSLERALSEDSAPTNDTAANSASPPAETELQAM
Numbers without * were called inactive; i = inactive; . = not tested or not shown.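 The calls were made as follows, unless noted: active = mean above 30%; inconclusive = self-fluorescent; inactive = the rest.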 A portion of the library; count on the stated rates, not on these rows.

SMILES	VCAM-1 imaging	VCAM-1 up imaging	FPR binder	VCAM-1 down	FPRL1 ligand
Cc1nc2ccc(F)cc2cc1C(=O)NCC1CCCO1 (centres undefined)	i	i	-4	i	-4
CCOC(=O)N1CCC(NC(=O)c2cc3c(-c4cccc(OC)c4)nn(C)c3s2)CC1	.	.	4	.	-1
Nc1c(C(=O)NCCc2ccccc2)nnn1Cc1ccccc1	i	i	-1	i	-2
Cc1onc(-c2c(F)cccc2Cl)c1C(=O)Nc1nc2c(s1)CCCC2	i	i	-2	i	-3
CCOc1ccc(CNC(=O)C2CC(=O)N(C3CCCC3)C2)cc1OC (centres undefined)	.	.	-1	.	-2
C=C1N(CCCCCC(=O)O)C(=O)OC12CCCCC2	.	.	-2	.	1
O=C(CSc1nnc(C2CC2)n1Cc1ccccc1)c1ccc(S(=O)(=O)N2CCOCC2)cc1	i	i	-1	i	-7
C[C@H]1C[C@@H]2[C@H]([C@@H](O)C[C@@]3(C)[C@H]2CC[C@]3(O)C(=O)CO)[C@@]2(C)C=CC(=O)C=C12	i	i	-2	i	-7
O=C(NC1CCCC1)c1ccc2nc(-c3ccco3)c(-c3ccco3)nc2c1	.	.	-7	.	-4
CC12CC(NC(=O)N1CCc1ccccc1)c1cc(Cl)ccc1O2 (centres undefined)	.	.	4	.	-3
CC(C)(C)n1ncc2c(=O)n(Cc3ccc(Cl)cc3Cl)cnc21	.	.	9	.	1
CCN1CCN(CCCNC(=O)C2c3ccccc3C(=O)N(C)C2c2ccc(OC)cc2)CC1 (centres undefined)	i	i	-3	i	-4
CC(C)C(NS(=O)(=O)c1cccs1)C(=O)N1CCc2ccccc2C1 (centres undefined)	.	.	0	.	-3
O=C(Nc1ccc(N2CCN(Cc3ccccc3Cl)CC2)cc1)c1cccnc1	i	i	-3	i	7
CCN(CC)S(=O)(=O)N1CCC(C(=O)NCC2COc3ccccc3O2)CC1 (centres undefined)	i	i	2	i	2
CN=C(Nc1cc(C)nn1-c1ccccc1)c1ccccc1	i	i	-6	i	-2
O=C(CSc1nc(-c2ccccc2Cl)ns1)NCc1ccco1	.	.	4	.	1
Cc1cc(C)n(-c2nc3sc4c(c3c3nnc(SC(C)C)n23)CC(C)(C)OC4)n1	i	i	-10	i	2
CCc1nn(CC(=O)NCCCN(Cc2ccccc2)C(C)C)c(=O)c2cc3sccc3n12	.	.	-9	.	-1
O=C(Cn1ccc2ccccc2c1=O)Nc1ccc2c(c1)OCO2	i	i	-4	i	-2
O=C(O)CCC(=O)Nc1ccc(-c2nnc(-c3ccco3)o2)cc1	.	.	14	.	8
Cc1[nH]n2c(=O)cc(-c3ccc([N+](=O)[O-])cc3)nc2c1-c1ccccc1	.	.	70*	.	47*
CCCCNC(=O)CS(=O)Cc1nc(-c2ccc(C)cc2)oc1C (centres undefined)	.	.	-2	.	4
CSc1ccccc1N=CC1=C(O)CC(C)(C)CC1=O	i	i	-4	i	-2
O=C(COC(=O)c1ccccc1C(=O)c1ccccc1)c1ccco1	i	i	-1	i	3

Brought forward from above: two compounds, followed by the next part.
SMILES	VCAM-1 imaging	VCAM-1 up imaging	FPR binder	VCAM-1 down	FPRL1 ligand
CSc1ccccc1N=CC1=C(O)CC(C)(C)CC1=O	i	i	-4	i	-2
O=C(COC(=O)c1ccccc1C(=O)c1ccccc1)c1ccco1	i	i	-1	i	3
O=C(Cn1ncc2c1-c1ccccc1OC2)N1CCN(c2ccccn2)CC1	i	i	-3	i	-1
Cc1ccc(N2CCN(C(=S)c3ccc(N(C)C)cc3)CC2)cc1	i	i	-6	i	-6
O=C(NCCN1CCN(c2ccccc2F)CC1)C1CCCN(S(=O)(=O)c2cnc[nH]2)C1 (centres undefined)	.	.	-1	.	-3
COc1ccccc1NC(=O)c1cn(C)c(=O)c2cc(OC)c(OC)cc12	.	.	0	.	1
Cc1nc(C)c(C(=O)C2=C(O)C(=O)N(CCN3CCOCC3)C2c2cccs2)s1 (centres undefined)	.	.	-4	.	0
Cc1ccc(NC(=O)C2CC(c3ccc(F)cc3)=NO2)cc1 (centres undefined)	.	.	4	.	1
CC(C)c1nc(NCC2CCCO2)c(C#N)c2c1COC(C)(C)C2 (centres undefined)	i	i	2	i	-2
CC(=O)OCC(=O)[C@@]12OC(C)(C)O[C@@H]1C[C@H]1[C@@H]3C[C@H](F)C4=CC(=O)C=C[C@]4(C)[C@@]3(F)[C@@H](O)C[C@@]12C	i	i	-5	i	-3
CCCCN1C(=O)CN(CCc2ccccc2)C(=O)C1c1ccc(OC)cc1 (centres undefined)	.	.	-4	.	5
O=C(O)c1ccc(-n2nnnc2SCc2ccccc2F)cc1	.	.	-12	.	-11
CCOC(=O)C(CC)Sc1ncnc2c1nnn2-c1ccc(F)cc1 (centres undefined)	.	.	-4	.	-1
CN(C)S(=O)(=O)n1cnc(-c2ccccc2)c1-c1ccccc1	i	i	-11	i	-11
COc1ccc(C(=O)OCC(=O)NCc2ccco2)cc1OC	i	i	-5	i	0
CCOc1ccc(N(CC(=O)NC2CCCC2)S(=O)(=O)c2c(C)[nH]c(=O)[nH]c2=O)cc1	i	i	-8	i	-12
C=COC(=O)CSc1snc(SCC(=O)OC)c1C#N	i	i	8	i	9
COc1cc(NC(=O)c2cc(C)on2)cc(OC)c1OC	.	.	2	.	9
CCN(CC)CCCNC(=O)Cc1c(C(=O)O)n(C)c2ccccc12	.	.	1	.	1
COc1cc(Br)cc(CN2CCN(C/C=C/c3ccccc3)CC2)c1O	i	i	-9	i	-1
Cc1ccccc1CN1CCN(CC(=O)NCc2ccccn2)C1=O	.	.	-2	.	-3
COc1cc(OC)c(NC(=O)CCNC(=O)Cn2cnc3ccccc3c2=O)cc1Cl	.	.	-3	.	1
O=C(NCc1ccco1)c1cnn2c(C(F)(F)F)cc(-c3ccco3)nc12	i	i	1	i	-4
COCCc1ccc(OCC(O)CNC(C)C)cc1 (centres undefined)	i	i	-1	i	-4
COc1ccc(CCNC(=O)c2cnc3n(c2=O)CCS3)cc1OC	.	.	2	.	3
Cc1ccc(CN2CCN(CC(=O)N3CCC(C(N)=O)CC3)C2=O)cc1	.	.	3	.	-2
COc1cccc(C2c3c(oc4ccccc4c3=O)C(=O)N2c2ccccn2)c1 (centres undefined)	.	.	8	.	2
Next records.
SMILES	VCAM-1 imaging	VCAM-1 up imaging	FPR binder	VCAM-1 down	FPRL1 ligand
COc1ccc(S(=O)(=O)NC(CC(=O)NC2CCCC2)c2ccco2)cc1 (centres undefined)	.	.	1	.	1
NC(=O)CSc1nnc(Cn2c(=O)sc3ccccc32)n1-c1cccc(Cl)c1	.	.	2	.	1
CCOC(=O)CSc1nc2c(c(=O)n(C)c(=O)n2C)n1Cc1ccccc1F	.	.	5	.	10
Cn1cnnc1SCc1ccccc1Br	.	.	1	.	10
CCC(=O)N1CCc2cc(S(=O)(=O)NCCC(=O)NC3CCCc4ccccc43)ccc21 (centres undefined)	.	.	4	.	1
CCOC(=O)c1cccc(NS(=O)(=O)c2cnc[nH]2)c1	.	.	6	.	1
COc1ccc(Nc2ccnc3ccccc23)cc1	.	.	-3	.	13
CC1CCCCC1NC(=O)CCn1c(=O)oc2ccccc21 (centres undefined)	.	.	-3	.	5
O=C(CN1C(=O)CC(c2ccco2)Sc2ccccc21)NCc1ccc2c(c1)OCO2 (centres undefined)	.	.	11	.	-4
O=C(CN1CCN(Cc2ccccc2)C1=O)NCc1ccc(Cl)cc1	.	.	-9	.	-6
CCCN1C(=O)c2cc(C(=O)NCCc3cccc(C)c3)ccc2C1O (centres undefined)	.	.	-8	.	2
c1ccc2c(SCc3cn4cccnc4n3)ncnc2c1	i	i	5	i	-3
COC(=O)C(O)(NC(=O)OCc1ccccc1)C(F)(F)F (centres undefined)	.	.	-5	.	2
COc1ccc(-n2c(=O)c3ccccc3n(CC(=O)NC3CCCCC3)c2=O)c(OC)c1	.	.	-2	.	1
O=C(CN1CCN(c2ccc(Cl)cc2)CC1)Nc1cccc(F)c1	.	.	8	.	2
NC(=O)C1(N2CCCCC2)CCN(C(=O)Nc2ccccc2C(F)(F)F)CC1	i	i	4	i	3
O=C(CCn1[nH]c(=O)c2ccccc2c1=O)NCCO	i	i	-4	i	10
Cc1cccn2c(=O)c3cc(C(=O)N4CCc5ccccc5C4)n(C)c3nc12	.	.	-1	.	2
COc1ccccc1C1CC(=O)NC(C)=C1C(=O)OCC(C)C (centres undefined)	.	.	2	.	-2
N#Cc1cc2ccc(N3CCOCC3)cc2cc1C#N	i	i	3	i	2
CCOC(=O)CSc1nnc(CNC(=O)c2ccc(OC)cc2)n1Cc1ccccc1	.	.	0	.	-2
Cc1cc(C)n(-c2cc(N3CCOCC3)ncn2)n1	i	i	10	i	8
O=C1NCCCN1Cc1ccc(F)cc1Cl	.	.	-2	.	8
O=C(c1cc(-c2ccncc2)nc2ccccc12)N1CCN(c2ccccn2)CC1	.	.	9	.	-2
CCOC(=O)N1CCC(n2c(SCC(=O)NCc3ccco3)nc3ccsc3c2=O)CC1	i	i	12	i	-2
Next section:
SMILES	VCAM-1 imaging	VCAM-1 up imaging	FPR binder	VCAM-1 down	FPRL1 ligand
O=C(NCc1ccccc1)C1CCN(S(=O)(=O)N2CCOCC2)CC1	.	.	-7	.	-20
O=C(COc1ccc(Cl)cc1Cl)Nc1noc2ccccc12	.	.	2	.	8
O=C(c1ccc(C(F)(F)F)cc1)N1CCCCC1	.	.	-13	.	2
COCc1cc(=O)n2c(-c3ccc(C)cc3)n[nH]c2n1	.	.	10	.	5
O=C(O)C1CCCN1C(=O)Nc1ccc(F)cc1 (centres undefined)	i	i	-7	i	-1
CN(CC(O)COCc1cccs1)C1CCCCC1 (centres undefined)	i	i	0	i	-2
CCOC(=O)Cn1c(CN(C)Cc2ccccc2)nc2c1c(=O)n(C)c(=O)n2C	i	i	0	i	-2
Brc1cnc(N2CCCC2)nc1N1CCCCC1	.	.	-3	.	0
COc1ccc(OC)c(C2C(C(N)=O)=C(C)Nc3nc(-c4cccc(Cl)c4)nn32)c1 (centres undefined)	.	.	-1	.	4
N#Cc1nc(-c2cccs2)oc1NCCc1ccccc1	i	i	0	i	-5
O=c1cc(CN2CCN(c3ccc(F)cc3)CC2)nc2sccn12	i	i	1	i	4
CCC(C)NC(=O)Cn1cc2c(n1)CCC(C)C2 (centres undefined)	.	.	-10	.	4
Cc1nnc(SCC(=O)NCc2ccccc2)s1	i	i	-2	i	4
COc1cc(NC(=O)C2CCCN2S(=O)(=O)c2ccc3c(c2)CCC(=O)N3)cc(OC)c1 (centres undefined)	.	.	-2	.	-4
CCC(Sc1nc(=O)cc(N)n1CCc1ccccc1)C(=O)Nc1cc(C)on1 (centres undefined)	.	.	5	.	-2
CN(C)c1nc(Oc2ccc(=O)n(C)n2)nc(N2CCOCC2)n1	i	i	3	i	6
O=C1Nc2ccc(S(=O)(=O)N3CCCC3C(=O)O)c3cccc1c23 (centres undefined)	.	.	-5	.	-3

Of the compounds above, 16 contain fluorine.
SMILES	VCAM-1 imaging	VCAM-1 up imaging	FPR binder	VCAM-1 down	FPRL1 ligand
Cc1nc2ccc(F)cc2cc1C(=O)NCC1CCCO1 (centres undefined)	i	i	-4	i	-4
Cc1onc(-c2c(F)cccc2Cl)c1C(=O)Nc1nc2c(s1)CCCC2	i	i	-2	i	-3
O=C(NCCN1CCN(c2ccccc2F)CC1)C1CCCN(S(=O)(=O)c2cnc[nH]2)C1 (centres undefined)	.	.	-1	.	-3
Cc1ccc(NC(=O)C2CC(c3ccc(F)cc3)=NO2)cc1 (centres undefined)	.	.	4	.	1
CC(=O)OCC(=O)[C@@]12OC(C)(C)O[C@@H]1C[C@H]1[C@@H]3C[C@H](F)C4=CC(=O)C=C[C@]4(C)[C@@]3(F)[C@@H](O)C[C@@]12C	i	i	-5	i	-3
O=C(O)c1ccc(-n2nnnc2SCc2ccccc2F)cc1	.	.	-12	.	-11
CCOC(=O)C(CC)Sc1ncnc2c1nnn2-c1ccc(F)cc1 (centres undefined)	.	.	-4	.	-1
O=C(NCc1ccco1)c1cnn2c(C(F)(F)F)cc(-c3ccco3)nc12	i	i	1	i	-4
CCOC(=O)CSc1nc2c(c(=O)n(C)c(=O)n2C)n1Cc1ccccc1F	.	.	5	.	10
COC(=O)C(O)(NC(=O)OCc1ccccc1)C(F)(F)F (centres undefined)	.	.	-5	.	2
O=C(CN1CCN(c2ccc(Cl)cc2)CC1)Nc1cccc(F)c1	.	.	8	.	2
NC(=O)C1(N2CCCCC2)CCN(C(=O)Nc2ccccc2C(F)(F)F)CC1	i	i	4	i	3
O=C1NCCCN1Cc1ccc(F)cc1Cl	.	.	-2	.	8
O=C(c1ccc(C(F)(F)F)cc1)N1CCCCC1	.	.	-13	.	2
O=C(O)C1CCCN1C(=O)Nc1ccc(F)cc1 (centres undefined)	i	i	-7	i	-1
O=c1cc(CN2CCN(c3ccc(F)cc3)CC2)nc2sccn12	i	i	1	i	4
